Screens: PubChem, National Center for Advancing Translational Sciences (NCATS)
HttQ103 aggreg: reduces HttQ103-GFP aggregates in PC12 cells | PC12 HttQ103-GFP aggregates, Acumen cytometry, 40 h | Potency, µM (series often up to 46.1 µM), for the others: at the top dose activity change, negative = inhibition, most hits filed as inhibitors | 220,000 tested, 1.1% active | AID 1688; further: potency means the concentration at half of the fitted maximal effect; on the % scale 0 is the no-effect control and ±100 the full control effect; nearly all actives have a fitted effect of over 60% in size
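Ecdysone-promoter PC12 model expressing HTT exon 1 Q103 fused to GFP, induced by tebufenozide at 100 nM final. Compounds titrated; aggregates sized 1–25 µm scored on a 488 nm laser cytometer.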
L3MBTL1 inh: blocks human L3MBTL1. AlphaScreen L3MBTL1–H3K9me1 peptide binding. Potency, µM (series often up to 57.1 µM), inactives show at the top dose activity, negative = inhibition, most hits filed as inhibitors. 230,000 tested, 0.66% active. AID 485360; further: potency means the concentration at half of the fitted maximal effect; on the % scale 0 is the no-effect control and ±100 the full control effect; nearly all actives have a fitted effect of over 60% in size
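First, the protein-peptide complex forms for 30 min at room temperature (L3MBTL1 50 nM, biotinylated H3K9me1 peptide 75 nM). Next, compounds are pin-transferred and incubated 30 min. Finally, AlphaScreen beads are added and read after 30 min.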
Luc counter: Kinase-Glo luciferase inhibition (counter-screen). Q27757. Kinase-Glo luciferase, ATP luminescence, 8 min. Potency, µM (titrated, usually from 38.3 µM), for inactives: at the top dose activity change, negative = inhibition, hits mostly inhibitors. 200,000 tested, 0.28% active. AID 1379; further: potency means the concentration at half of the fitted maximal effect; on the % scale 0 is the no-effect control and ±100 the full control effect; nearly all actives have a fitted effect of over 60% in size
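Kinase-Glo luciferase light output from ATP and luciferin was measured with 10 uM ATP, within the enzyme's linear range. Buffer: 50 mM imidazole pH 7.2, 50 mM KCl, 7 mM MgCl2, 0.01% Tween 20, 0.05% BSA; luminescence read after 8 min at ambient temperature.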
CBFb-RUNX1 inh: blocks binding between human CBF-beta and RUNX1; Q01196+Q13951; AID 1477; AlphaScreen CBFb-His/RUNX1-biotin binding, biochemical; 230,000 tested, under 10 active; Potency, µM (top dose mostly 59.8 µM), for inactives: at the highest dose activity, negative = inhibition, hits mostly inhibitors; further: % of control where 0% means no effect
Target sequence (Q01196 whole entry, looked up): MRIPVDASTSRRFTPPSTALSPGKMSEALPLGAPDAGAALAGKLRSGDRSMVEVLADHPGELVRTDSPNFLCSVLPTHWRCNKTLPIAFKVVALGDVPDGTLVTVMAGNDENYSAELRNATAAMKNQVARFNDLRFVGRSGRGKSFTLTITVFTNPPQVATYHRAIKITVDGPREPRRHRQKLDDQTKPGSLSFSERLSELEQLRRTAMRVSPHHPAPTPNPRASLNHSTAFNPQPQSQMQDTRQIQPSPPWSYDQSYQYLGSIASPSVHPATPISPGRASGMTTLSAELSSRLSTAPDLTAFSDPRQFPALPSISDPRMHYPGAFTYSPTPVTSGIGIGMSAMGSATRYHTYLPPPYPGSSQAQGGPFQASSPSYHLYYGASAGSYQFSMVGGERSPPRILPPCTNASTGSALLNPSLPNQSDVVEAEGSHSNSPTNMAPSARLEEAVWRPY
Target sequence (Q13951 whole entry, looked up): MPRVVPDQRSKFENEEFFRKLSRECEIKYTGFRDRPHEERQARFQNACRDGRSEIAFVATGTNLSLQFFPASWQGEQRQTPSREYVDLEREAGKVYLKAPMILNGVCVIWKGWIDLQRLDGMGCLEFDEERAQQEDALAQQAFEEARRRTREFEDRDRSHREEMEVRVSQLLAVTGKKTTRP
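Room-temperature protein-protein interaction test with 30 nM each of His-tagged CBF-beta and biotinylated RUNX1, 15 min with compound, then 90 min with nickel plus streptavidin beads. Signal read in AlphaScreen mode.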
IMPase Li inh: IMPase inhibition in cells with lithium potentiation | CHO-M1 cells, IP1 TR-FRET (IP-One), carbachol + lithium | Potency, µM (doses to about 59.4 µM), without a hit: at the highest dose activity, negative = IMPase inhibition, actives largely listed as inhibitors | 210,000 tested, 0.35% active | AID 1457;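 further: IP1 builds up when IMPase is blocked and the TR-FRET signal falls; potency means the concentration at half of the fitted maximal effect; plate controls were basal vehicle for no effect and high inhibitor control for full effect; nearly all actives have a fitted effect of over 50% in size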
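Readout is a homogeneous TR-FRET IP1 immunoassay (Ex 320, Em 665 and 620), where raised cytosolic IP1 lowers signal. Cells were CHO-M1 treated 30 min at 37C with test compounds plus a little lithium; AC50 values came from Hill-equation fitting.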
Epigenetic derep: derepresses silenced GFP reporter in murine cells | murine LDR cells, GFP reporter derepression, 30 h | Potency, µM (top dose mostly 53.9 µM), inactives show top-dose GFP activation, usual class: activators | 280,000 tested, 0.2% active; further: potency means the concentration at half of the fitted maximal effect; % of control where 0% means no effect; nearly all actives have a fitted effect of over 60% in size
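GFP-positive cell count by laser-scanning cytometry (objects 20–120 um) after 30 h, 37 C compound exposure of murine LDR cells; reporter is CMV-GFP integrated at a silenced locus, inducible by HDAC or DNMT inhibitors.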
An asterisk follows results filed as active; ? = inconclusive; nt = not tested or not shown; [ ] = another dose, or the depositor's remark. The call rests on the fitted dose curve; in most records, active means well fitted curve in the direction sought with a large enough effect; inconclusive means small, poorly fitted or top-dose-only effect, or another doubt; inactive means no such curve, though single readings can be large; an effect the other way counts as inactive or inconclusive.

SMILES	HttQ103 aggreg	L3MBTL1 inh	Luc counter	CBFb-RUNX1 inh	IMPase Li inh	Epigenetic derep
COc1ccc(C(=O)Nc2ccccc2C(=O)O)cc1NC(=O)C(c1ccccc1)c1ccccc1	6%[9.22 µM]	-6%	nt	-11%	nt	2.0%
Cc1nc2cc(-c3cccc(F)c3)nn2c(N2CCN(C(=O)c3ccco3)CC2)c1C	0%	nt	8%	1%	-14%[38.3 µM]	-1.9%
COC(=O)c1cccc(N(C(=O)c2cnccn2)C(C(=O)NC2CCCCC2)c2cn(C)nc2C)c1 (configuration not stated)	?	-3%	0%	14%	22%[38.3 µM]	4.1%
COC(=O)c1cc(=O)n(Cc2cccs2)c(=Nc2ccccc2)s1	11%[9.22 µM]	?	nt	-22%	nt	18µM*
C=CCn1c(SCC(N)=O)nc2scc(-c3ccc(C)o3)c2c1=O	-6%	-5%	6%	11%	0%	1.3%
Cc1cc(-c2ccccc2)nc2cc(C(=O)N(Cc3ccccc3)Cc3ccccc3)nn12	13µM*	20%	2%	?	15%	-1.0%
Cc1ccc(C(=O)NNC(=S)NC(=O)c2ccc(Cl)cc2Cl)cc1	?	nt	-2%	-18%	17%[38.3 µM]	2.9%
CN1CCN(c2oc(/C=C/c3ccccc3)nc2C#N)CC1	7%[9.22 µM]	nt	nt	17%	nt	8.6%
N#Cc1c(NC(=O)c2ccc(Cn3cc(Br)cn3)o2)sc2c1CCCCCC2	?	-13%	5%	6%	12%	-4.7%
CCC(C)(C)c1ccc(OCC(=O)N(C)C)c(C(C)(C)CC)c1	-9%[9.22 µM]	30%	1%	0%	11%	2.8%[10.1 µM]
COc1cccc(-c2nc(-c3ccccc3)[nH]c(=O)c2C#N)c1	?	1%	2%	0%	-6%[38.3 µM]	-1.2%
COc1cccc(NC(=O)COC(=O)c2c3c(nc4ccccc24)CCC(C)C3)c1 (configuration not stated)	1%	-5%	-4%	-2%	-6%[38.3 µM]	-2.0%
CCC(=O)c1ccc(OCCN2CCOCC2)cc1	-8%	8%	-3%	5%	15%[38.3 µM]	-0.8%
CCOC(=O)c1cc(C(=O)OCC)c(=O)[nH]c1N1CCCCC1	15%	-8%	4%	4%	7%	-2.0%
N#CCCN1CCN(C(CNS(=O)(=O)c2ccc(Cl)cc2)c2ccccc2)CC1 (configuration not stated)	9%	-2%	-6%	-7%	-7%[38.3 µM]	2.9%
O=C(CSc1nc(N2CCCCC2)nc(N2CCCCC2)n1)N1CCN(c2ccccc2)CC1	?	-9%	-3%	-3%	3%[38.3 µM]	-0.2%
COC(=O)CSc1nc2c(c(-c3ccc(C)o3)c1C#N)CCCC2	8%	nt	-4%	22%	28%[38.3 µM]	1.0%
COc1ccc2[nH]c(=O)c(CN(Cc3cccs3)S(=O)(=O)c3c(C)ccc4nsnc34)cc2c1	?	nt	-2%	-3%	42%[activator][38.3 µM]	0.8%
N#Cc1cc2c(nc1SCC(=O)Nc1sc3c(c1C#N)CCC3)CCCCCC2	-2%	nt	-1%	5%	17%[38.3 µM]	?
CCc1ccc(C(=O)OCC(=O)Nc2cccc(S(=O)(=O)NC3=NCCCCC3)c2)cc1	19%	4%	-2%	5%	-3%	-0.9%
Cn1c(SC2=CS(=O)(=O)c3ccccc32)nc2ccccc21	?	-6%	-4%	-1%	3%[38.3 µM]	1.1%
Oc1ccc(N2CCN(C(c3ccncc3)c3nnnn3C3CCCC3)CC2)cc1 (configuration not stated)	-18%	-2%	2%	-3%	-4%	-0.9%
COc1ccc(CCNc2nc(N3CCCCC3)nc(N3CCCCC3)n2)cc1OC	-7%	0%[11.4 µM]	2%	2%	30%[activator][38.3 µM]	0.0%
Cc1cc(N2CCN(c3ccccc3Cl)CC2)n2cc(-c3ccccc3)nc2n1	?	-10%	-3%	-4%	15%[38.3 µM]	1.3%
Cn1c(SCCOc2ccccc2Cl)nnc1-c1ccncc1	0.79µM*	-23%[11.4 µM]	1%	3%	-6%[38.3 µM]	-1.2%

Molecules shown so far with two or more sulfur atoms (five):
SMILES	HttQ103 aggreg	L3MBTL1 inh	Luc counter	CBFb-RUNX1 inh	IMPase Li inh	Epigenetic derep
COC(=O)c1cc(=O)n(Cc2cccs2)c(=Nc2ccccc2)s1	11%[9.22 µM]	?	nt	-22%	nt	18µM*
C=CCn1c(SCC(N)=O)nc2scc(-c3ccc(C)o3)c2c1=O	-6%	-5%	6%	11%	0%	1.3%
COc1ccc2[nH]c(=O)c(CN(Cc3cccs3)S(=O)(=O)c3c(C)ccc4nsnc34)cc2c1	?	nt	-2%	-3%	42%[activator][38.3 µM]	0.8%
N#Cc1cc2c(nc1SCC(=O)Nc1sc3c(c1C#N)CCC3)CCCCCC2	-2%	nt	-1%	5%	17%[38.3 µM]	?
Cn1c(SC2=CS(=O)(=O)c3ccccc32)nc2ccccc21	?	-6%	-4%	-1%	3%[38.3 µM]	1.1%

(further entries)
SMILES	HttQ103 aggreg	L3MBTL1 inh	Luc counter	CBFb-RUNX1 inh	IMPase Li inh	Epigenetic derep
O=C(Nc1ccccc1)c1cccnc1Nc1ccccc1	-8%	-2%	-4%	-3%	15%[38.3 µM]	-7.0%
C=CCOC(=O)C(C#N)c1nc2ccccc2nc1N1CCN(Cc2ccccc2)CC1 (configuration not stated)	12%	nt	-1%	-7%	51%[activator][38.3 µM]	1.9%
CCN1CCN(C(CNS(=O)(=O)c2ccc(OC)cc2)c2cccnc2)CC1 (configuration not stated)	-4%	-9%	5%	3%	5%[38.3 µM]	0.0%
COc1ccc(-c2cc(-c3ccccc3)c(C#N)c(S(C)(=O)=O)n2)cc1	-38%	nt	0%	2%	34%[activator][38.3 µM]	7.0%
CC1=CC(C)(C)Nc2ccc(OC(=O)c3cccnc3)cc21	?	?	-1%	-11%	2%[38.3 µM]	?
CS(=O)(=O)c1sc2nc(-c3ccccc3)cc(-c3ccccc3)c2c1N	-20%	nt	-2%	22%	?	1.4%
COc1cccc(CNC(=O)CNC(=S)N(Cc2ccccc2)Cc2ccccc2F)c1	?	-4%	-1%	9%	9%	-0.3%
CCOC(=O)N1CCN(c2nc3ccccc3nc2C(C#N)C(=O)NCCc2ccccc2)CC1 (configuration not stated)	-8%	2%	4%	0%	-1%[38.3 µM]	-0.9%
CC1(C)Cc2c(C#N)c(N3CCN(C(=O)c4ccco4)CC3)nc(Cc3ccccc3)c2CO1	?	-4%	nt	0%	nt	-13%
O=c1cc(CN2CCN(c3ccccc3)CC2)c2c(ccc3ccccc32)o1	0%	-3%	-4%	4%	-2%[38.3 µM]	13%
Cc1cccc(S(=O)(=O)c2c(N)n(/N=C/c3ccco3)c3nc4ccccc4nc23)c1	22%[9.22 µM]	-15%	-4%	?	-16%[38.3 µM]	-0.2%
CCc1ccc(N(C(=O)c2ccoc2C)C(C(=O)NC2CCCC2)c2ccc(OC)cc2)cc1 (configuration not stated)	-8%	4%	3%	-2%	8%[38.3 µM]	-2.3%
Cc1ccc2c3c(c(SCC(=O)Nc4nccs4)nc2c1)CCCC3	13%	4%	4%	-1%	-1%[38.3 µM]	-0.1%
O=C(NC1CCCC1)C1CC(c2ccc(F)cc2)=NO1 (configuration not stated)	11%	3%	-4%	5%	-4%[38.3 µM]	2.8%
Cc1cc(N/N=C2\CC(C)CC(C)(C)C2)nc2ccccc12 (configuration not stated)	20%	-15%	4%	1%	25%	-1.2%
CS(=O)(=O)N(CC(=O)Nc1ccc(CC#N)cc1)c1ccc(C23CC4CC(CC(C4)C2)C3)cc1	22µM*	-9%	1%	-2%	28%[38.3 µM]	0.0%
CC1=CC(C)(C)N2C(=O)C3(SCC(=O)N3c3ccc(F)cc3)c3cc(C)cc1c32 (configuration not stated)	?	nt	-3%	-23%	37%[activator][38.3 µM]	-2.2%
Cc1[nH]nc2c1C1(C(=O)N(Cc3ccc(Cl)cc3)c3ccccc31)C(C#N)=C(N)O2 (configuration not stated)	12%	-3%	1%	0%	8%	0.9%
CCC(=O)NC(=S)Nc1ccccc1F	1%	2%	-3%	11%	-5%[38.3 µM]	-0.9%
CC(=O)c1cccc(N(C(=O)c2ccco2)C(C(=O)NC2CCCC2)c2ccncc2)c1 (configuration not stated)	-1%	4%	1%	-2%	5%[38.3 µM]	-1.0%
O=C(NNc1ccccc1Cl)C(O)(c1cccc(C(F)(F)F)c1)c1cccc(C(F)(F)F)c1	?	6%	2%	-17%	12%	11%
Cc1nn(-c2ccccc2)c2nc(N)c(C#N)c(-c3ccc(C(C)(C)C)cc3)c12	15%[9.22 µM]	nt	nt	16%	nt	-1.2%
CCOc1cc(S(=O)(=O)n2cc(-c3ccc(F)cc3)c(N)n2)cc(OCC)c1OCC	?	-9%	1%	4%	23%[38.3 µM]	-1.0%
Cc1nc(SCC(=O)Nc2ccc(F)cc2)c(C#N)c(C)c1CC(=O)c1ccc(Br)cc1	10%	nt	-3%	3%	?	0.7%
O=C(Nc1ccccc1N1CCOCC1)c1ccc2ccccc2n1	-22%	1%	-12%	4%	26%[38.3 µM]	4.2%

Remaining list, next part:
SMILES	HttQ103 aggreg	L3MBTL1 inh	Luc counter	CBFb-RUNX1 inh	IMPase Li inh	Epigenetic derep
Cc1onc(-c2c(F)cccc2Cl)c1C(=O)Nc1sc2c(c1C(N)=O)CCC2	?	nt	-3%	-6%	9%[38.3 µM]	1.5%
CCC1(C)Cc2c(sc3c2c(=O)n(C)c2nnc(SCc4ccccc4)n32)CO1 (configuration not stated)	5%	0%[11.4 µM]	-5%	5%	18%[38.3 µM]	0.0%
COc1ccc(CCCC(=O)NCc2ccccc2)cc1C	-7%	3%	-2%	0%	-3%	-1.3%
Cc1cc(C(C)(C)C)oc1C(=O)N1CCN(C(=O)c2oc(C(C)(C)C)cc2C)CC1	-13%	nt	-3%	1%	21%[38.3 µM]	-1.0%
O=C(CSc1nnc(COc2ccc(Cl)cc2)o1)OC1CCCCC1	-16%	83%[activator]	-1%	?	31%[38.3 µM]	6.3%
CCC(C)COC(=O)C(C#N)c1nc2ccccc2nc1N1CCCCC1 (configuration not stated)	?	-8%	nt	15%	nt	3.5%
CC1=C(OC(=O)c2ccc(Br)cc2)C(C)(C)C(c2ccccc2)OC1=O (configuration not stated)	26%	nt	-4%	22%	57%[activator][38.3 µM]	0.0%
COC(=O)CCC(=O)OC1(C)C(=O)C=C2C=C(C3CC3)N(Cc3ccccc3)C=C2C1=O (configuration not stated)	-19%[9.22 µM]	nt	-6%[7.66 µM]	?	-1%	-4.8%
CCOC(=O)c1nc(S(C)(=O)=O)ncc1Cl	?	-8%	0%	5%	11%[38.3 µM]	-2.0%
Cc1ccc(C(=O)C2=C(O)C(=O)N(c3ncccn3)C2c2ccc(Br)cc2)o1 (configuration not stated)	-19%[9.22 µM]	nt	nt	4%	nt	3.1%
COc1ccc(/C=C2/SC(=O)N(CCC(=O)Nc3ccccc3)C2=O)cc1OC	2%	-1%	3%	-2%	211%[activator]	-1.0%
Fc1cccc(Cl)c1CNC(c1ccccc1)c1ccccc1	?	nt	-3%	?	37%[activator][38.3 µM]	-1.0%

Only part of the results is shown. The share of hits here may be higher or lower than overall.
